Screening data from PubChem.
D2 PAM – human D2 receptor positive allosteric modulation; DiscoveRx D2 beta-arrestin cells, luminescence, 90 min; 100% = 57 uM dopamine signal; potentiation, % (concentration not given with the values); P14416; hit rate 0.23% among 360,000; active = potentiation of 50% or more; inconclusive = 30% to 50%; inactive = 30% or less;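 further: compound concentration not given in the record; tested on top of an EC20 dose of dopamine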
Target sequence (P14416 whole entry, looked up): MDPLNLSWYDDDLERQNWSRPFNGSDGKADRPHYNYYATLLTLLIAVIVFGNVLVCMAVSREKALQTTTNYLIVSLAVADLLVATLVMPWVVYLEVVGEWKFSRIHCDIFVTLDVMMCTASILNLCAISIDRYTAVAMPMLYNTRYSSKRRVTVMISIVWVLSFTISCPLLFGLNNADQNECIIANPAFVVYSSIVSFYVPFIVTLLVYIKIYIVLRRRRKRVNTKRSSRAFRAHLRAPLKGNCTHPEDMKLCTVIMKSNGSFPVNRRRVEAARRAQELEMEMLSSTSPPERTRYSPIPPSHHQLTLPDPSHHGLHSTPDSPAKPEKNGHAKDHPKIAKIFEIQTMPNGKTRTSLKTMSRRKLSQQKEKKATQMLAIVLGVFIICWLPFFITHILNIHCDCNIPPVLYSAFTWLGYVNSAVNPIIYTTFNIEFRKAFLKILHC
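PathHunter beta-arrestin assay in DiscoveRx D2 cells. Compounds were added with an EC20 of dopamine (50 nM final) for 90 min at 37 deg C. Luminescence was read 1 h after detection reagent, with 57 uM dopamine as the EC100 control.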
CtBP-E1A blk – inhibitors of CtBP/E1A interaction; hit rate 0.49% among 340,000; activity change, % (concentration not given with the values); AlphaScreen GST-E1A/His-CtBP binding, 1536-well; active compounds read low; control for the full effect not named in the record; AID 651724; in the data active means activity change below about -65%; inconclusive means about -30% to -65%; inactive means above about -30%; further: on the % scale 0 is the no-effect control and ±100 the full control effect
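In 5 uL wells, 23 nL compound meets equimolar GST-E1A and His-CtBP (5X stock 125 nM each) for 2 h, 37 °C. Beads (5X, 50 ug/mL) then 1 h, 37 °C, dark.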
Six1-Eya2 inh – blocks human Six1 binding to Eya2. hit rate 0.56% among 360,000. AID 651725. activity change, % (concentration not given with the values). AlphaScreen GST-Six1/His-Eya2 binding, biochemical; active compounds read low; control for the full effect not named in the record; in the data active = activity change below about -65%; inconclusive = about -30% to -65%; inactive = above about -30%; further: on the % scale 0 is the no-effect control and ±100 the full control effect
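Compounds are tested against tagged Six1 and Eya2 proteins bridged by glutathione donor and nickel acceptor beads; after a one-hour incubation at 37 °C without light, AlphaScreen emission is recorded.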
gsp antag – gsp mutant antagonism | Potency, µM (series often up to 76.9 µM), for the others: top-dose activity change, negative = inhibition, most hits filed as inhibitors | AID 624288 | hit rate 0.4% among 340,000 | gsp-mutant cells, cAMP HTRF, 30 min; control for the full effect not named in the record; active = falling curve of any shape with a large fitted effect; inconclusive = falling curve, mostly with a smaller effect; inactive = flat or rising curve; cell line not stated here;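 further: intracellular cAMP measured with PDE inhibitor Ro 20-1724 present during compound exposure; potency means the concentration at half of the fitted maximal effect; on the % scale 0 is the no-effect control and ±100 the full control effect; nearly all actives have a fitted effect of over 65% in size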
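HTRF cAMP measurement after 30 min RT detection following 30 min, 37C compound treatment alongside […] (added as 300 uM solution) in G418-selected cells seeded at 2000/well and grown 16–24 h.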
D2 agonist – human D2 receptor agonism in beta-arrestin assay | hit rate 0.084% among 360,000 | DiscoveRx PathHunter D2 beta-arrestin, luminescence, 90 min; 100% = 57 uM dopamine signal | activation, % (no concentration beside the values) | P14416 | AID 624465; in the data active = activation above about 40%; inconclusive = about 15% to 40%; inactive = below about 15%; further: compound concentration not given in the record; the text of the record calls up to 30% inactive
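Agonist mode: compounds alone added to overnight-plated D2 PathHunter cells for 90 min at 37 C, with 57 uM final dopamine (EC100) defining full response. Beta-arrestin recruitment detected by chemiluminescent reagent, read after 1 h at ambient temperature.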
gsp ag – agonists of gsp mutant (McCune-Albright syndrome); hit rate 0.13% among 340,000; gsp mutant cells, cAMP HTRF, 30 min; control for the full effect not named in the record; Potency, µM (doses to about 76.9 µM), without a hit: top-dose activation (cAMP increase), actives largely listed as activators; active = well fitted activation curve with a large enough effect; inconclusive = small, poorly fitted or top-dose-only effect, or another doubt; inactive = no such curve, though single readings can be large or run the other way; cell line not stated here;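 further: phosphodiesterase inhibitor Ro 20-1724 added with compounds to block cAMP breakdown; potency means the concentration at half of the fitted maximal effect; nearly all actives have a fitted effect of over 60% in size; about a fifth of the inactives were tested at one dose only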
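Cells stably selected in G418 were plated at 2000/well, grown 16-24 hr, then given compounds in DMSO with the PDE inhibitor […] (300 uM solution added) for 30 min at 37C; cAMP was read by HTRF.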
* marks the source's active call; other numbers are inactive results; ? = inconclusive; . = not tested or not shown; [ ] = another dose, or the depositor's remark.

SMILES	D2 PAM	CtBP-E1A blk	Six1-Eya2 inh	gsp antag	D2 agonist	gsp ag
Cn1c(=O)cc(Nc2ccc(Cl)cc2)[nH]c1=O	-6	3	-4	2%	-0.8	3%
COc1ccc(F)cc1S(=O)(=O)N1CCN(Cc2ccc3c(c2)OCO3)CC1	-15	5	-4	3%	2.4	-30%
Cc1ccc(N2C(=O)c3ccc(C(=O)O)cc3C2=O)c(C)c1	3	12	8	6%	0.9	-6%
Cc1ccc(NC(=O)CCn2c(=S)oc3ccccc32)cc1	-6	8	4	1%	-0.9	30%
Cc1ccc(NC(=O)C2CCCN(C(=O)Nc3ccc(F)cc3)C2)cc1 (stereo not drawn)	-8	4	-1	-3%	-1.5	10%[15.4 µM]
O=C(COC(=O)c1ccc(Oc2ccccc2)cc1)Nc1nnc(-c2ccccc2)o1	-1	-24	-17	-5%	-2.1	0%
O=C(NCc1ccco1)C(c1cccs1)N(C(=O)Cc1cccs1)c1ccccc1 (stereo not drawn)	-11	-3	-9	-23%	-0.5	?
CN(C)C(=S)Nc1cccc(F)c1	-16	.	-1	6%	-2.1	2%
CCOC(=O)c1oc2c(CN3CCN(C)CC3)c(O)ccc2c(=O)c1-c1ccc(Br)cc1	-5	-20	9	-10%	-6.3	-1%[15.4 µM]
CCCC1=C(C(=O)OCC)C(c2ccccc2OCC)NC(=O)N1C (stereo not drawn)	-7	3	-2	?	-2.5	-18%
CC(C)OCCCN1CC(=O)N2C(c3cccc([N+](=O)[O-])c3)c3[nH]c4ccccc4c3C[C@H]2C1=O (stereo partly drawn)	8	3	-7	-23%	6.3	-71%[inhibitor]
CC1=C/C(=N\NC(=O)c2ccc(O)cc2)CC1	-11	-11	4	9%	-1.3	1%[15.4 µM]
COc1ccc(C)cc1NC(=O)C(C)N1CCOCC1 (stereo not drawn)	-2	8	3	12%	-3.1	-4%
N#Cc1c(NC(=O)C2CC(c3ccccc3Cl)=NO2)sc2c1CCC2 (stereo not drawn)	-7	-17	-1	-2%	-3.5	-76%
Cc1ccc(S(C)(=O)=NS(=O)(=O)c2cccc3nsnc23)cc1 (stereo not drawn)	-2	-17	3	7%	4.0	18%
COc1ccc(Cn2c(=N)c(C(=O)NCC3CCCO3)cc3c(=O)n4ccccc4nc32)cc1 (stereo not drawn)	-59	6	13	-10%	-2.7	.
Cc1ccc(CN2CCN(Cc3ccc(Oc4ncccn4)cc3)CC2CCO)cc1 (stereo not drawn)	-20	-10	-4	-8%	-2.7	24%
CN(C)N=Nc1nc[nH]c1C(N)=O	-9	-5	-3	-14%	2.5	.
Fc1ccc(C2=Nn3c(nnc3-c3n[nH]c4c3CCC4)SC2)cc1	1	-17	?	-12%	1.0	?
Cc1ccccc1OCCC(=O)OCC(=O)c1c(N)n(CC(C)C)c(=O)n(C)c1=O	-8	4	-2	32µM*	?	-2%[15.4 µM]
COC(=O)c1[nH]c2ccc(Br)cc2c1NC(=O)Oc1ccccc1	17	-5	-11	-9%	7.9	29%
COCc1cc(=O)[nH]c(-c2ccc(C(F)(F)F)cc2)n1	-6	-3	1	-2%	-0.4	-1%[15.4 µM]
COc1ccc(C)cc1NC(=O)NCc1ccc(F)cc1	-22	.	1	-13%	-5.7	-10%
CCOC(=O)c1cc(=O)cc(C(=O)OCC)o1	-5	0	3	11%	-0.5	-32%[inhibitor]
CNC(=O)c1cc(-c2ccc(Cl)cc2)n(-c2ccccc2)n1	-3	0	13	-8%	-3.4	?
O=C1C(=Cc2ccc(F)cc2)Cc2ccccc21	-3	2	2	.	5.7	.
COC(=O)N1CCN(c2ccc(Cl)c(Cl)c2)CC1	-7	7	3	-26%	5.3	17%
CC(=O)NCCc1nc2ccccc2n1Cc1ccc(C)cc1	-2	3	5	5%	-5.8	13%
CCOC(=O)c1cc(C#N)c(Oc2cccc(C(F)(F)F)c2)nc1-c1ccccc1	-2	38	34	-7%	-2.8	-11%
O=C(c1cccs1)N1C[C@H](n2cc(C3CC3)nn2)[C@@H](O)C[C@@H]1c1ccccc1	4	6	2	.	-6.4	-46%[inhibitor]
COc1cc(C(=O)NCC(=O)OCC(=O)Nc2ncc(Cl)cc2Cl)cc(OC)c1OC	1	-21	14	-2%	-3.9	-11%[15.4 µM]
COc1cccc(NC(=O)C2C3C=CC4(O3)C2C(=O)N(CCCN2CCCCC2)C4C(=O)NC2CCCCC2)c1 (stereo not drawn)	-13	0	-11	1%	-3.3	1%[15.4 µM]
CCN1CCN(CCCNC(=O)c2ccc3c(c2)N(Cc2ccccc2)CCS3)CC1	-14	-17	-13	10%	-2.3	29%
O=c1c2cc(N3CCOCC3)ccc2[nH]c(=S)n1CCc1ccccc1	-4	-8	4	-26%	2.8	2%[15.4 µM]
COc1cccc(N2CCN(C(=S)NCCc3ccccc3)CC2)c1	-9	-5	-12	-15%	-1.3	7%
Cc1ccccc1C(=O)Nc1nnc(CC(=O)N/N=C/c2ccncc2)s1	-5	-4	-3	1%	0.5	25%[15.4 µM]
COCCn1nnnc1CN(Cc1cccnc1)Cc1cc2cc(OC)ccc2[nH]c1=O	4	3	2	7%	-0.8	?
COc1ccc(CCN2C(=S)NC3CC2(C)Oc2ccc([N+](=O)[O-])cc23)cc1OC (stereo not drawn)	7	?	?	?	0.6	-60%[inhibitor]
On1c(-c2ccccc2)nc2ccc(Cl)cc21	12	3	7	-11%	5.2	7%
CCN(CC)c1ccc(/C=c2/sc3nnc(-c4ccccc4C)n3c2=O)cc1	-5	7	4	3%	-1.8	-53%[inhibitor]

Some of the entries above, set out differently:
molecule | D2 PAM | CtBP-E1A blk | Six1-Eya2 inh | gsp antag | D2 agonist | gsp ag
COc1cc(C(=O)NCC(=O)OCC(=O)Nc2ncc(Cl)cc2Cl)cc(OC)c1OC | 1 | -21 | 14 | -2% | -3.9 | -11%[15.4 µM]
COc1cccc(NC(=O)C2C3C=CC4(O3)C2C(=O)N(CCCN2CCCCC2)C4C(=O)NC2CCCCC2)c1 (stereo not drawn) | -13 | 0 | -11 | 1% | -3.3 | 1%[15.4 µM]
CCN1CCN(CCCNC(=O)c2ccc3c(c2)N(Cc2ccccc2)CCS3)CC1 | -14 | -17 | -13 | 10% | -2.3 | 29%
O=c1c2cc(N3CCOCC3)ccc2[nH]c(=S)n1CCc1ccccc1 | -4 | -8 | 4 | -26% | 2.8 | 2%[15.4 µM]
COc1cccc(N2CCN(C(=S)NCCc3ccccc3)CC2)c1 | -9 | -5 | -12 | -15% | -1.3 | 7%
Cc1ccccc1C(=O)Nc1nnc(CC(=O)N/N=C/c2ccncc2)s1 | -5 | -4 | -3 | 1% | 0.5 | 25%[15.4 µM]
COCCn1nnnc1CN(Cc1cccnc1)Cc1cc2cc(OC)ccc2[nH]c1=O | 4 | 3 | 2 | 7% | -0.8 | ?

Additional results follow:
SMILES	D2 PAM	CtBP-E1A blk	Six1-Eya2 inh	gsp antag	D2 agonist	gsp ag
CCOc1cc(N2CCOCC2)c(OCC)cc1NC(=O)CN1C(=O)NC(C)(c2ccc(OC)cc2)C1=O (stereo not drawn)	-4	-1	-4	?	-1.1	-2%
COc1ccc(CCN(C)CC(O)COc2c(C)ccc(C)c2C)cc1OC (stereo not drawn)	-27	-15	-3	6%	-8.1	11%
COc1cccc(CN(C)CC(=O)Nc2cc(S(=O)(=O)N3CCCC3)ccc2Cl)c1OC	-22	-8	-7	?	-1.3	-1%[15.4 µM]
COc1ccc2cc(C(=O)C3CCCN(Cc4cccc(C)n4)C3)ccc2c1 (stereo not drawn)	-11	-2	-3	-4%	0.3	-9%[15.4 µM]
Cc1nc2ccccc2c(=O)n1NC(=O)CCC(=O)O	-3	11	5	10%	8.7	-14%
COC(=O)c1c(NC(=O)c2ccccc2[N+](=O)[O-])sc2c1CC(C)(C)NC2(C)C	-18	-8	-6	3%	-0.5	6%
COc1ccc(C(C(=O)NC2CCCC2)N(Cc2ccco2)C(=O)c2snc(C(N)=O)c2N)cc1OC (stereo not drawn)	6	1	1	-1%	4.1	-58%[inhibitor]
O=C(CCN1C(=O)C2CC=CCC2C1=O)Nc1cccc(Cl)c1 (stereo not drawn)	-16	-5	0	10%	-3.0	6%
Cn1c(=O)c2c(ncn2CCOc2ccc(Br)cc2)n(C)c1=O	-2	1	-8	10%	7.0	?
CC(C)OC(=O)CSc1nnc(-c2cnccn2)n1Cc1ccco1	-9	4	-1	-5%	0.0	6%
CCN(c1cccc(C)c1)S(=O)(=O)c1csc(C(N)=O)c1	-2	5	-4	7%	-0.3	-8%
CSCc1ccc(C(=O)NCCSc2ccc(Br)cc2)cc1	-2	3	-6	-6%	2.9	-35%[inhibitor]
CC[C@@H]1Cc2cc(O)ccc2C2=C1c1ccc(O)cc1C[C@H]2CC	-14	-3	-4	-25%	12	.
Cc1cc(C(=O)CN2C(=O)NC(C)(CC(C)C)C2=O)c(C)n1-c1ccc2c(c1)OCO2 (stereo not drawn)	-6	-16	-13	-10%	-0.6	23%
CC(NC(=O)CSc1nc2ccc(N)cc2s1)c1ccccc1 (stereo not drawn)	-4	2	3	-19%	0.3	0%[15.4 µM]
CCNC(=O)c1ccc(CSc2nc3ccccc3s2)cc1	16	10	7	-30%	-0.7	3%
O=C(CSc1ccc(Br)cc1)NC1CCCCCC1	-24	15	4	-14%	1.1	-42%[inhibitor]
Cc1ccsc1/C=N/Nc1nc2ccccc2[nH]1	-4	-2	-8	-4%	14	13%
CCOC(=O)Cc1csc(NC(=O)c2sc3nc4ccc(CC)cc4cc3c2N)n1	-8	18	-9	3%	-1.0	-16%
O=S(=O)(c1ccccc1)N1CCN(C(=S)NC2CCCC2)CC1	-27	-6	9	7%	-2.6	7%[15.4 µM]
Nc1cc(Cl)ccc1C(=O)OCC(=O)N1CCCCCC1	0	7	-2	0%	2.6	23%
C/C(=N/NC(=O)c1ccc2nc[nH]c2c1)c1cccs1	8	4	1	4%	-0.4	?
C=C1CCN(C(C(=O)OC)C(C)C)S(=O)(=O)c2ccc(F)cc21 (stereo not drawn)	-13	-11	-1	0%	-3.7	.
Cc1ccc(CNC(=O)C2CCCN(S(=O)(=O)c3cccc4nonc34)C2)cc1 (stereo not drawn)	-2	-5	2	2%	0.2	-3%
Cc1nc(NC(=O)CSc2nnc(-c3ccccc3)c(-c3ccccc3)n2)c(Cl)cc1Cl	-19	-26	-6	-31%	-4.2	24%

Two of the compounds above, with each value named:
C/C(=N/NC(=O)c1ccc2nc[nH]c2c1)c1cccs1
- D2 PAM: 8
- CtBP-E1A blk: 4
- Six1-Eya2 inh: 1
- gsp antag: 4%
- D2 agonist: -0.4
- gsp ag: ?

C=C1CCN(C(C(=O)OC)C(C)C)S(=O)(=O)c2ccc(F)cc21 (stereo not drawn)
- D2 PAM: -13
- CtBP-E1A blk: -11
- Six1-Eya2 inh: -1
- gsp antag: 0%
- D2 agonist: -3.7
- gsp ag: .
